GLA inh pH 4.5: blocks human alpha-galactosidase A at pH 4.5 | P06280 | purified enzyme, 4-MU-alpha-Gal fluorescence, pH 4.5 | activity change, negative = inhibition, % at 105 µM | 230,000 tested, under 10 active | AID 1467; inconclusive = small, poorly fitted or top-dose-only inhibition, or a rising curve; inactive = flat fitted curve, though single readings scatter; no compound was filed as active;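 also: 0% = full activity with enzyme and -100% = basal without enzyme; dose as in the result columns while the protocol names 77 µM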
Target sequence (P06280 whole entry, looked up): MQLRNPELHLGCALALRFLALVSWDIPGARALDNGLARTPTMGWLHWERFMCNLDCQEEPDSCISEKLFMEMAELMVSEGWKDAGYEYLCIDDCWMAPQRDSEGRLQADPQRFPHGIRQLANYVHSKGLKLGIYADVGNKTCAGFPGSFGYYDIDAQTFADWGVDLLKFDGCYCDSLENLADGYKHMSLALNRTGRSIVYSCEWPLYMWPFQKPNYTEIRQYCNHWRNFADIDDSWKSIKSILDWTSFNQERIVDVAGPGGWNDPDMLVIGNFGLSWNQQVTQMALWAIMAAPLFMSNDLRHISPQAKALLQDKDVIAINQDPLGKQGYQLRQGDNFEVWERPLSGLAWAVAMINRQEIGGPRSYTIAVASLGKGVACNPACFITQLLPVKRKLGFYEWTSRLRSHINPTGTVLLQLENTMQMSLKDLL
Numbers without * were called inactive; & = joins results of further samples. An excerpt. The share of hits here may be higher or lower than overall.

mol | GLA inh pH 4.5
C[C@@H](C(=O)Nc1ccc2ccccc2c1)[C@H]1C[C@]1(C)[C@H](NC(=O)c1ccccc1)c1ccccc1 | -4
Cc1nc(N2CCOCC2)c2nc(-c3ccccc3)n(C(C)CN(C)C)c2n1 (stereo not drawn) | 6
Cc1cccc(C2=N[C@@H](Cc3ccccc3)CO2)c1 | -7
CC(C)c1cccc2nc3c(c([Si](C)(C)C)c12)Cn1c-3cccc1=O | 18
Cc1cc(/C=C/c2ccc3cc(N(C)C)ccc3[n+]2C)c(C)n1-c1ccccc1 | -7
CN(C)c1ccnc(-c2cccc(NS(C)(=O)=O)c2)n1 | -1
C[C@H](O)[C@@H]1C(=O)N2C(C(=O)O)=C(SCCN=CN)C[C@@H]12 | 0
CC1(C)C(=O)NC2=C1C(=O)C(=O)c1ccccc12 | -5
CCCCC[C@H](O)/C=C/C=C/C=C/[C@@H](O)C/C=C\CCCC(=O)O | 4
Clc1cccc2c1CN(C1=NCCN1)C2 | 3
CCCCC/C=C\C/C=C\C/C=C\CCCCCCC(=O)O | -4
CCCn1c(=O)c2[nH]c(-c3ccc(OCC(=O)NCCN)cc3)nc2n(CCC)c1=O | -14
Cc1nc(NCc2ccccc2)c2nc(-c3ccccc3)n(CCN(C)C)c2n1 | -9
Cc1noc(C)c1-c1nccc(N2CCNCC2)n1 | -10
CN(C)Cc1ccccc1-c1cc(-n2ccnc2)ncn1 | 1
O=c1[nH]c(=O)n(C2CC(O)C(CO)O2)cc1F (stereo not drawn) | 7
CCCCS(=O)(=O)N1CCc2nc(-c3ccccc3)c3c(c2C1)CO[C@@H](C)C3 | 4
CN(CCc1ccc(Cl)c(Cl)c1)CCN1CCCCCC1 | -10
C[C@@]12C(=O)OC(=O)[C@@]1(C)[C@@H]1CC[C@@H]2O1 | -13
CCCCOc1cc(C[C@@H]2CNC(=O)N2)ccc1OC | -11
CCCCCCCCCCCCCCCC(=O)NCC(COP(=O)([O-])OCC[N+](C)(C)C)OCC (stereo not drawn) | -18
COc1ccccc1CNc1ncnc2ccc(-c3ccccc3CN(C)C)cc12 | -6
COC(=O)C1=C(C)N(Cc2ccccc2)C(=O)N[C@@H]1c1ccccc1 | -3
CN(C)/N=N/c1nc[nH]c1C(N)=O | 12
CN1C(=O)N(C)C2=NNC=NC2(O)C1=O (stereo not drawn) | -1
O=C(Nc1cccc(C(=O)Nc2ccc(S(=O)(=O)O)c3cc(S(=O)(=O)O)cc(S(=O)(=O)O)c23)c1)Nc1cccc(C(=O)Nc2ccc(S(=O)(=O)O)c3cc(S(=O)(=O)O)cc(S(=O)(=O)O)c23)c1 | -8&-3
Cc1c(C)c2c(c(C)c1O)CCC(C)(COc1ccc(Cc3sc(=O)[nH]c3O)cc1)O2 (stereo not drawn) | -14
O=C(O)CCC(=O)N1CCCC1C(=O)O (stereo not drawn) | 1
CCCCCCCCCC[Si](C)(C)CCC(=O)NC(Cc1ccc(C)cc1)c1ccccc1 (stereo not drawn) | 3
COC(=O)C[C@](O)(CCCC(C)(C)O)C(=O)O[C@@H]1C(OC)=C[C@]23CCCN2CCc2cc4c(cc2[C@H]13)OCO4 | 4
c1ccc(-c2nc(-c3ccccc3)c(Nc3ccc4ccccc4c3)o2)cc1 | 0
COc1cc2c(cc1OC)C(=O)OC2 | 0
CCCCCCCCC1OC1CCCCCCCC(=O)O (stereo not drawn) | 6
CC(=O)O[C@@H]1C(CO[Si](C)(C)C(C)(C)C)=C(Br)C(=O)[C@@H]2O[C@]12C | -1
COC(=O)[C@@H]1C[C@@H]2CC[C@@H](O)C[C@@H]2N1Cc1ccc(N2CCOCC2)cc1 | 10
C[C@H]1Cc2c(COc3ccccc3)nc3c(c2CO1)CN(C(=O)Nc1cccc(C#N)c1)CC3 | 3
FC(F)(F)c1ccccc1-c1cc(N2CCNCC2)ncn1 | -4
COC(=O)CNC(=O)C1(C)C=CC2(CCCCC2)N1C(=O)OC (stereo not drawn) | 7
COC(=O)N[C@@H](c1cccc(F)c1)C(C(C)=O)C(=O)OC (stereo partly drawn) | -2
COCCNc1nc(-c2cccc(OC)c2)nc2ccccc12 | -10
NC1C(O)OC(CO)[C@@H](O)[C@@H]1O[C@H]1O[C@@H](C(=O)O)C(O)C(O)C1O (stereo partly drawn) | -7
NCCC[C@@H](CC(=O)N[C@@H]1CCNC[C@H]1C(=O)N[C@H](CC(=O)N[C@@H](CCC(=O)O)CC(=O)O)Cc1ccccc1)NC(=O)C[C@H](CO)NC(=O)[C@@H]1CCCC[C@H]1N | -10
Nc1nc2[nH]c(=O)cnc2c(=O)[nH]1 | 3
Cc1cc(O)c2c(c1O)C(=O)C(O)=C(O)C2=O | -4
Cc1ccc(O)cc1 | 8
COC(=O)[C@@]1(Cc2ccccc2)[C@H]2c3cc(C(=O)N4CCCC4)n(CCc4ccccn4)c3C[C@H]2CN1C(=O)c1ccccc1 | 3
C1CCc2nnnn2CC1 | -13&-7&4
C[C@@H]1CC[C@]2(C(=O)O)CC[C@]3(C)C(=CCC4[C@@]5(C)C[C@@H](O)[C@H](O)[C@@](C)(CO)C5[C@H](O)C[C@]43C)C2[C@H]1C (stereo partly drawn) | -4
CC1(COc2ccc(C[C@H]3SC(=O)NC3=O)cc2)CCCCC1 | -10
COc1ccc(C2c3[nH]c4ccccc4c3CC3C(=O)N(CCc4ccc(OC)c(OC)c4)CC(=O)N32)cc1 (stereo not drawn) | -13

The listing continues.
mol | GLA inh pH 4.5
CCCC(=O)OC1(C(=O)CO)CCC2C3CCC4=CC(=O)CCC4(C)C3C(O)CC21C (stereo not drawn) | 0
CCCCCCCC/C=C\C/C=C\C=C\C(O)CCCC(=O)O (stereo not drawn) | 5
c1ccc2c(Nc3ccncc3)nc(-c3ccoc3)nc2c1 | -3
COc1ccc2[nH]c(-c3ccccc3)c(CCNC(C)=O)c2c1 | -7
O=C(O)c1c(C(=O)O)c2ccccc2[nH]c1=O | -1
CCCCCCCC1=CC2=C(Cl)C(=O)C(C)(OC(C)=O)C(=O)C2=CO1 (stereo not drawn) | -7
COc1ccccc1CNc1ncncc1-c1ccoc1 | -2
C=CC1=C2C=C(C3CC3)N(c3ccc(OC)cc3)C=C2C(=O)C(C)(OC(=O)c2ccco2)C1=O (stereo not drawn) | 1
COc1ccc(N2C=C3C(=O)C(C)(OC(=O)C4CCCC4)C(=O)C=C3C=C2c2ccsc2)cc1 (stereo not drawn) | -1
CC1(C)S[C@@H]2[C@H](NC(=O)COc3ccccc3)C(=O)N2[C@H]1C(=O)O (tested in a mixture with another compound) | 4
CC(C)[C@@H](CC(=O)N[C@@H]1CCCC[C@H]1C(=O)N[C@H](CC(=O)N[C@@H](CCC(=O)O)CC(=O)O)Cc1c[nH]c2ccccc12)NC(=O)C[C@H](Cc1ccccc1)NC(=O)[C@@H]1CCCC[C@H]1N | -2
CC(C)(C)Nc1oc(-c2ccccc2)nc1-c1cccc2ccccc12 | -1
COc1cc2c(cc1OC)-c1cc3cc(OC)c(OC)cc3c(=O)n1CC2 | 27
COc1ccc([C@@H]2[C@@H](O)[C@H](O)[C@@H](C)N2C)cc1OC | -15
CC(=O)OC1CCC2(C)C(=CC=C3C2CCC2(C)C3CCC2C(C)/C=C/C(C)C(C)C)C1(C)C (stereo not drawn) | 6
COC(=O)C1(C(=O)OC)C/C=C\C/C=C\c2ccccc2[C@@H]1C[N+](=O)[O-] | -1&-3
COCCOC(=O)C1=C(C)NC(C)=C(C(=O)OC(C)C)[C@@H]1c1cccc([N+](=O)[O-])c1 | -16
S=C(NC1CCCCC1)N1CCC([C@H]2C=NC=N2)CC1 | -2
CC1(OC(=O)CCc2ccccc2)C(=O)C=C2C=C(c3ccc(C#N)cc3)OC=C2C1=O (stereo not drawn) | -3
CC(C)CC(=O)N[C@H](C(=O)N[C@H](C(=O)N[C@@H](CC(C)C)[C@H](O)CC(=O)N[C@@H](C)C(=O)N[C@@H](CC(C)C)[C@H](O)CC(=O)O)C(C)C)C(C)C | 2
COC(=O)N[C@@H](CCc1ccccc1)[C@]1(C(C)=O)CCCC1=O | 2
COC(=O)[C@H](COC(C)(C)C)NC(=O)O[C@@H]1C(=O)c2cc(OC)ccc2O[C@H]1c1cccc(OC)c1 | -10
C=C(C)C1CC=C(CO)CC1 (stereo not drawn) | 1
O=c1oc2cc(O)ccc2cc1-c1ccc2c(c1)OCCO2 | 15
COc1cccc2c1C(=O)c1c(O)c3c(c(O)c1C2=O)C[C@](O)(C(C)=O)C[C@H]3O[C@@H]1C[C@H](N)[C@H](O)[C@H](C)O1 | 3

In a second layout: results already given.
> COC(=O)C1(C(=O)OC)C/C=C\C/C=C\c2ccccc2[C@@H]1C[N+](=O)[O-]
  GLA inh pH 4.5: -1&-3
> CC(C)[C@@H](CC(=O)N[C@@H]1CCCC[C@H]1C(=O)N[C@H](CC(=O)N[C@@H](CCC(=O)O)CC(=O)O)Cc1c[nH]c2ccccc12)NC(=O)C[C@H](Cc1ccccc1)NC(=O)[C@@H]1CCCC[C@H]1N
  GLA inh pH 4.5: -2

More records follow:
mol | GLA inh pH 4.5
COc1cccc([C@@H]2Oc3ccc(OC)cc3C(=O)[C@H]2OC(=O)N[C@H]2CCCc3ccccc32)c1 | -12
COC(=O)C1=C(C)NC(C)=C([N+](=O)[O-])[C@@H]1c1ccccc1C(F)(F)F | -14&-26
Cc1ccc2c(c1)C(=O)[C@]1(O)CCN(c3ccccc3)C1=N2 | -8
Cc1nn(-c2ccccc2)c(C)c1/C=N/N1CCN(Cc2ccccc2)CC1 | -1
CCC1=C2CC[C@H]3C(=O)N(C)C(=O)[C@H]3[C@H]2[C@@]2(Cc3ccccc3)C(=NCC3CC3)OC(=O)N2C1=O | 0
COc1ccc(Cl)cc1N=Nc1ncc[nH]1 | -13
COC(=O)[C@@H]1C[C@@]2(O)[C@@H](O)[C@@H](O)[C@@H](O)C[C@H]2N1Cc1cc(F)ccc1F | 5
CCCCCCCC(=O)O[C@H](CC(=O)O)C[N+](C)(C)C | 6
COc1ccccc1CNc1nc(-c2ccc(N(C)C)cc2)nc2ccccc12 | -5
c1cncc(CNc2nc(-c3ccoc3)nc3ccccc23)c1 | 2
Nc1nc2c(nc(Sc3ccc(Cl)cc3)n2C2OC(CO)C(O)C2O)c(=O)[nH]1 (stereo not drawn) | -3
COc1cccc2c3c(c(C)nc12)CC(CO)O3 (stereo not drawn) | 0
COC(=O)c1c(-c2cc(OC)c(OC)c(OC)c2)c2ccnc(OCc3ncccn3)c2c(=O)n1Cc1ccnc(C)c1 | 1&2
O=c1cc[nH]c(=S)[nH]1 | -6
c1ncc(CC2CCNCC2)[nH]1 | -4
CC[C@H](C)C(=O)O[C@H]1C[C@H](O)C=C2C=C[C@H](C)[C@H](CC[C@@H](O)C[C@@H](O)CC(=O)O)[C@H]21 | 8
O=c1onc2cnc3ccccc3n12 | 1&2
COC(=O)[C@@]1(Cc2ccc(F)cc2)[C@H]2c3cc(C(=O)N(C)C)n(CCO)c3C[C@H]2CN1C(=O)c1ccccc1 | -24
CC(C)OC(=O)[C@@H]1CC[C@H](C)[C@@H](CCC[C@@H]2CC=C[C@H](CC#N)O2)O1 | -1
O=C(Nc1ccccc1)N[C@H]1C[C@H](C(=O)O)Nc2cc(Cl)cc(Cl)c21 | -2
CC1=C2C(O)C(=O)OC3CC4C(C)(C)C(=O)C=C[C@]4(C)C(CC1)[C@@]23C (stereo partly drawn) | -2
O=C1C=CC(=O)c2c(O)c(Cl)c(Cl)c(O)c21 | 13
C=C(C)C1Cc2c(ccc(C(=O)O)c2O)O1 (stereo not drawn) | 11
COCCN=C1OC(=O)N2C(=O)C3=C4C(C[C@H]5C(=O)N(c6ccccc6)C(=O)[C@H]5[C@H]4[C@@]12Cc1ccccc1)[C@H]1C(=O)N(c2ccccc2)C(=O)[C@H]1[C@H]3C (stereo partly drawn) | -3
COc1cc2c(cc1OC)-c1c(oc3cc(O)cc(O)c3c1=O)CO2 | -15

5 neighbouring records from above, quoted:
mol | GLA inh pH 4.5
COc1cccc([C@@H]2Oc3ccc(OC)cc3C(=O)[C@H]2OC(=O)N[C@H]2CCCc3ccccc32)c1 | -12
COC(=O)C1=C(C)NC(C)=C([N+](=O)[O-])[C@@H]1c1ccccc1C(F)(F)F | -14&-26
Cc1ccc2c(c1)C(=O)[C@]1(O)CCN(c3ccccc3)C1=N2 | -8
Cc1nn(-c2ccccc2)c(C)c1/C=N/N1CCN(Cc2ccccc2)CC1 | -1
CCC1=C2CC[C@H]3C(=O)N(C)C(=O)[C@H]3[C@H]2[C@@]2(Cc3ccccc3)C(=NCC3CC3)OC(=O)N2C1=O | 0

Further entries follow:
mol | GLA inh pH 4.5
COc1ccc2c(c1)OC/C(=C/c1ccc(O)c(O)c1)C2=O | -1
Cc1ccccc1N1C(=O)c2cc(S(N)(=O)=O)c(Cl)cc2N[C@H]1C | 4
CC(C)[C@@H](CC(=O)N[C@@H]1CCCC[C@H]1C(=O)N[C@H](CC(=O)N[C@@H](CCC(=O)O)CC(=O)O)Cc1c[nH]c2ccccc12)NC(=O)C[C@H](Cc1c[nH]c2ccccc12)NC(=O)[C@@H]1CNCC[C@H]1N | 1
CCCCCCCc1cc2ccccc2c(=O)o1 | 6
O=c1cc(-c2ccccc2)oc2cc(O[C@@H]3O[C@H](CO)[C@@H](O)[C@H](O)[C@H]3O)c(O)c(O)c12 | -1
COC(=O)[C@H](COC(C)(C)C)NC(=O)O[C@@H]1Cc2cc(Br)ccc2O[C@H]1c1cccc(OC)c1 | -1
CC(C)C[C@@H](CC(=O)N[C@@H](CCC(=O)O)CC(=O)O)NC(=O)[C@@H]1CCCC[C@H]1NC(=O)C[C@H](CCCN)NC(=O)C[C@H](Cc1c[nH]c2ccccc12)NC(=O)[C@@H]1CNCC[C@H]1N | -24
COC[C@H]1OC=C[C@@H](OC)[C@@H]1OC | -5
O=S(c1ccccc1)c1ccc2nnnn2n1 (stereo not drawn) | 3
CO/N=C(\C(=O)N[C@@H]1C(=O)N2C(C(=O)O)=C(COC(C)=O)CS[C@H]12)c1csc(N)n1 | -1

Source: PubChem BioAssay
